# Screening results as filed in PubChem.
# PrP UTR inh = suppresses PrP 5' UTR mRNA reporter expression; cell-based PrP 5' UTR mRNA reporter, plate reader; inhibition, % (no concentration beside the values); 0.35% of 340,000 active;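 active = every replicate at 50% or more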;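 note: 0 = median of the neutral control wells; tested in H4 reporter cells; numbers are from one replicate; inactives centre near -14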
# RN4220 kill = kills Staphylococcus aureus RN4220. 0.33% of 330,000 active. S. aureus RN4220 growth, OD600, 16 h. inhibition, % (concentration not given with the values);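 active = z-score of -3 or lower and OD600 up to 0.18 on both plates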;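 note: plate controls were untreated cells for no effect and reference antibiotic for full effect; stock transfer was 100 nL into about 80 µL; one replicate is shown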
# Sa ugtP lethal = growth inhibition of S. aureus ugtP deletion strain; S. aureus RN4220 ugtP deletion, OD600 growth, 16 h; some inactives read as strong as hits; 0.54% of 330,000 active; growth inhibition, % (test concentration not listed);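 active = z-score under -3 and OD600 up to 0.15 on both plates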;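 note: plate controls were untreated wells for no effect and antibiotic for full effect; wells of about 80 µL received 100 nL stock; the first replicate is given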
# BJeLR viability = kills HRASV12-expressing BJeLR cells; BJeLR (HRASV12) viability, CellTiter-Glo ATP luminescence, 48 h; reference of the scale not given here; inhibition, % (concentration not given with the values); 0.17% of 300,000 active;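 active = replicate mean above 50%; inconclusive = above 50% but judged a plate artefact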;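 note: 50 nL library stock added to about 25 µL; numbers are from one replicate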
# Mtb hypoxia rep = inhibitors of hypoxia-regulated fluorescent reporter in Mycobacterium tuberculosis; fluorescence inhibition, % (concentration not given with the values); 0.1% of 300,000 active; M. tuberculosis hypoxia-regulated fluorescent reporter, fluorescence; AID 1159583;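 active = 35 to 45% if threefold the growth effect, above 45% if 1.5-fold the growth effect; inactive = the rest, general growth blockers included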;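 note: wells of about 50 µL received 100 nL stock; 0% = vehicle wells and 100% = reference inhibitor wells; whole bacteria with a GFP reporter of the hypoxia response; strong numbers were not always called active; many hits fall short of the cut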
# Autofluor counter = compound fluorescence in toxin protease inhibitor counterscreen. compound autofluorescence counterscreen, microsphere flow cytometry; hits give high values. fluorescence intensity (test concentration not listed). 3.1% of 360,000 active;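 active = at least 3 SD above the mean of all compounds, about 16000 in these data; inconclusive = too few beads counted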;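 note: 100 nL of 1 mM stock went into each well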
# Mtb hypoxia rep growth = further read-out of Mtb hypoxia rep, marked with its call; growth inhibition, %; measured here: M. tuberculosis growth (absorbance);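 0% = vehicle and 100% = reference antibiotic; read after six days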
# * marks the source's active call; other numbers are inactive results; ? = inconclusive; nt = not tested or not shown.
SMILES,PrP UTR inh,RN4220 kill,Sa ugtP lethal,BJeLR viability,Mtb hypoxia rep,Mtb hypoxia rep growth,Autofluor counter
C[C@]12c3[nH]c4ccccc4c3CCN1C(=O)C(CC(=O)NCCCn1ccnc1)C[C@@H]2C(=O)N1CCCCC1 (stereo not given in full),2,-4.2,0,nt,-9,-11,2936
O=C(CCc1ccc(S(=O)(=O)NC2CCCCC2)cc1)N(Cc1ccccc1)Cc1ccccc1,-8,3.8,-7,15,8,7,?
CN(C)CCOc1ccc(C(C)(C)c2ccccc2)cc1,-32,nt,nt,0,nt,nt,3798
CCN(c1ccccc1)S(=O)(=O)c1ccc(OC)c(NC(=O)CN2C(=O)NC(C)(C)C2=O)c1,-11,3.8,-2,nt,6,2,3539
Cc1cc(C)n(CC(=O)NN=Cc2c[nH]c3ccccc23)n1,nt,2.0,1,nt,-3,4,nt
CCOC(=O)c1cc2sccc2n1CC(=O)Nc1ccc(OC)cc1,-4,0.6,-7,-9,7,4,4200
c1cncc(-c2nnc3sc(C4CCCCC4)nn23)c1,1,4.8,4,-1,7,2,3063
C/C(=N\NC(=O)c1cc(C)nc2ccccc12)c1cccs1,-19,nt,nt,-8,nt,nt,3365
CCOC(=O)N1CCN(C(=O)C2CCN(S(=O)(=O)CC)CC2)CC1,-26,-1.9,-6,1,-7,4,5276
CC(CCc1ccccc1)NC(=O)Cc1cccs1 (stereo not given),-34,1.0,3,1,17,22,4387
COc1ccc(NC(=O)N2CCCC2C(=O)NCc2ccccc2Cl)cc1 (stereo not given),-32,-2.6,3,2,6,2,3812
COc1ccc2c(c1)C(=O)CC(c1ccc3c(c1)OCCO3)O2 (stereo not given),nt,6.1,10,-7,6,13,3148
Cc1ccc(-c2nc(SC(C)C(=O)N3CCOCC3)n[nH]2)cc1 (stereo not given),-10,5.2,5,5,3,-2,nt
COc1cccc(NC(=O)COC(=O)Cc2ccc(Br)cc2)c1,-10,3.5,-5,-2,-3,3,4290
Cc1ccnc(NC(=O)c2cccc(S(=O)(=O)N3CCN(c4ccccc4)CC3)c2)c1,-28,2.9,3,3,8,5,6491
COc1cccc(NC(=O)CN(C)C(=O)c2cc(-c3ccccc3)nc3ccc(C)cc23)c1,-17,-0.6,-2,nt,-8,2,5689
CCC(NC(=O)CNC(=O)CNC(=O)c1ccc(Cl)cc1Cl)c1ccc(C)cc1 (stereo not given),-6,nt,nt,-2,nt,nt,3830
Nc1ccccc1-c1nc2ccccc2c(=O)o1,-18,3.4,-9,-13,4,23,3677
COc1cc(C(=O)N2CCN(C(=O)c3ccccc3)CC2)cc(OC)c1OC,-28,0.9,5,3,11,0,8106
COc1ccc(OC)c(CCNC(=O)C(C)n2nc(C)c3c(C)n(-c4ccccc4)nc3c2=O)c1 (stereo not given),11,1.8,3,1,2,1,5668
COc1ccc(CC(=O)Nc2ccc(S(=O)(=O)Nc3cc(C)on3)cc2)cc1OC,-15,6.2,4,3,nt,nt,2404
Cc1cc(OCC(=O)Nc2cccnc2)c2c(C)cc(=O)oc2c1,-13,-3.4,4,-6,7,0,3830
O=C(CN1CCN(CC(=O)Nc2ccccc2C(F)(F)F)CC1)Nc1ccccc1F,-20,-0.2,-2,-4,nt,nt,2640
CCOc1cc(C=Nn2c(C)nc3sc(C)c(C)c3c2=O)ccc1O,nt,0.1,-1,nt,2,4,nt
CC(C)n1cnc2cc(NCc3ccccn3)ccc21,-34,4.2,2,2,2,4,20604*
COCCN(C(=S)Nc1cc(C)cc(C)c1)C(C)c1cccs1 (stereo not given),-19,5.9,6,-5,3,-2,3480
CN1CN=C(NS(=O)(=O)c2ccc([N+](=O)[O-])cc2)NC1,-4,2.4,5,1,6,5,5880
O=C(CSCc1cc(=O)n2nc(C3CC3)sc2n1)Nc1ccccc1Cl,2,-5.0,-7,5,-6,4,5886
CC1(C)CC(CC(=O)Nc2ccccc2[N+](=O)[O-])C(=O)O1 (stereo not given),1,2.6,1,-1,7,5,2582
CCn1c(COc2ccc(C)cc2)nnc1SCC(=O)Nc1ccc2c(c1)OCCO2,-12,-4.8,-6,-9,-3,6,2896
C=CCNC(=S)NN=Cc1ccc(-c2ccc(Cl)cc2Cl)o1,nt,0.2,4,nt,16,9,nt
CCOC(=O)c1ccc(Nc2nc(N3CCOCC3)nc(N3CCOCC3)n2)cc1,-1,3.8,-1,10,2,12,5976
Cc1ccccc1-c1noc(-c2cccs2)n1,-34,7.7,12,-3,6,14,5552
CC(=O)NC(NC(=S)Nc1c(C)n(C)n(-c2ccccc2)c1=O)C(Cl)(Cl)Cl (stereo not given),-12,-0.3,-2,nt,1,-2,2465
CCCc1cc(CN(C)C(=O)CC2C(=O)NCCN2Cc2ccccc2C)[nH]n1 (stereo not given),-5,0.4,6,-9,3,10,5428
COc1cc(C2C(S(=O)(=O)c3ccccc3)CON2C)ccc1OCc1ccc(F)cc1 (stereo not given),nt,-3.4,3,2,-2,5,nt
O=C(NCc1cccnc1)Nc1cccc(C(F)(F)F)c1,2,-2.3,-9,-6,-8,-5,4338
CC1CCN(S(=O)(=O)c2ccc(C(=O)N3CCCC3C(=O)O)cc2)CC1 (stereo not given),0,3.0,3,nt,5,-2,2841
CC(=NNC(=O)c1ccc(COc2ccccc2)cc1)c1ccncc1,nt,4.2,4,nt,-1,1,nt
CS(=O)(=O)c1ccc2nc(NC(=O)c3ccc(NS(=O)(=O)c4cccc([N+](=O)[O-])c4)cc3)sc2c1,1,0.2,6,15,0,-9,5043
CNc1ccc(C=C2C=Cc3ccccc32)cc1,-62,20,77,nt,2,11,3650
CC(C)CC(COCc1ccc(Cl)cc1)N1CCN(C(=O)c2ccc(Cl)cc2Cl)CCC1=O (stereo not given),2,-1.2,-23,-12,4,3,2808
COc1ccc(Cl)cc1S(=O)(=O)Nc1ccc2c(c1)n(C)c(=O)n2C,-12,8.5,3,2,0,-5,4105
O=C(COc1ccccc1)c1ccccc1,-17,7.4,7,nt,7,8,?
COc1ccc(CCNS(=O)(=O)c2ccc(Br)cc2)cc1OC,8,4.6,5,3,3,0,3826
O=C(CN1CCN(CC(=O)Nc2ccc(Cl)cc2)CC1)Nc1ccc(F)cc1,-1,8.2,15,-3,9,-3,3410
Cc1ccccc1NCc1ccc(O)c2ncccc12,-11,1.5,-10,-1,1,0,12555
O=C(NCc1csc(-c2cccs2)n1)C1CC1,-32,2.3,-3,-11,-1,-8,3883

# An excerpt of these results, with each value named.
SMILES: CS(=O)(=O)c1ccc2nc(NC(=O)c3ccc(NS(=O)(=O)c4cccc([N+](=O)[O-])c4)cc3)sc2c1
  PrP UTR inh: 1
  RN4220 kill: 0.2
  Sa ugtP lethal: 6
  BJeLR viability: 15
  Mtb hypoxia rep: 0
  Mtb hypoxia rep growth: -9
  Autofluor counter: 5043
SMILES: CNc1ccc(C=C2C=Cc3ccccc32)cc1
  PrP UTR inh: -62
  RN4220 kill: 20
  Sa ugtP lethal: 77
  BJeLR viability: nt
  Mtb hypoxia rep: 2
  Mtb hypoxia rep growth: 11
  Autofluor counter: 3650

# More records follow.
SMILES,PrP UTR inh,RN4220 kill,Sa ugtP lethal,BJeLR viability,Mtb hypoxia rep,Mtb hypoxia rep growth,Autofluor counter
O=C(Nc1ccc(F)cc1)OCCOc1ccc([N+](=O)[O-])cc1,-12,nt,nt,9,nt,nt,3072
Cc1c(C#N)c(N=CN(C)C)c(C(=O)c2ccc(Br)cc2)n1-c1ccccc1,-15,1.8,5,-5,3,3,10570
Cc1ccccc1NS(=O)(=O)c1ccc2c(c1)n(C)c(=O)n2C,-21,12,14,1,-14,-2,4559
Cc1ccc(N(CC(=O)N/N=C/c2ccc(OCC(N)=O)cc2)S(C)(=O)=O)cc1Cl,-12,nt,nt,-3,nt,nt,4781
CCCCOc1ccc(N2C(N)=NC(N)=NC23CCCCC3)cc1,-1,0.9,12,4,6,1,4297
O=C(Cc1c(Sc2ccccc2)c2ccccc2n1Cc1ccccc1)NCCO,-20,-3.3,-20,-5,7,4,2679
O=[N+]([O-])c1cccc(N=Nc2ccc(O)cc2O)c1,-14,56,45,nt,nt,nt,3546
Cn1ncc([N+](=O)[O-])c1C(=O)N/N=C/c1cccc([N+](=O)[O-])c1,-9,nt,nt,-4,nt,nt,2461
CC(SC1=NCCS1)C(=O)Nc1nnc(-c2ccc(Br)cc2)s1 (stereo not given),-14,6.7,-5,10,4,12,5766
N#Cc1c(Sc2ncc(C(F)(F)F)cc2Cl)nsc1C/C=N\OCc1ccccc1Br,-17,nt,nt,0,nt,nt,3015
Nc1ncnc(N2CCc3ccccc32)c1[N+](=O)[O-],21,nt,nt,4,nt,nt,4384
COc1ccccc1N1CCN(C(=O)c2cc3c(s2)CCCCC3)CC1,-26,5.6,-5,10,-1,3,5216
CCOc1ccc(C(=O)/C=C/c2ccc(OC)c(OC)c2)cc1,-43,10,9,6,15,9,3922
COC(=O)C(CSCc1ccccc1)NC(=O)CSc1nc(C)cc(=O)[nH]1 (stereo not given),-30,1.3,1,5,3,8,3558
CC(=NNC(=O)c1ccc(F)cc1)c1cccc(NC(=O)c2cccc(F)c2)c1,nt,1.9,1,nt,1,1,nt
CC(=O)c1ccc(N2CCN(S(=O)(=O)c3cccc(S(=O)(=O)N4CCOCC4)c3)CC2)cc1,-13,3.5,-10,-9,nt,nt,2827
COC(=O)C1=C(c2cc3ccccc3s2)CC2CCC1N2C(=O)NC1CC1 (stereo not given),nt,4.7,-7,nt,7,6,nt
CCN(CC)CCNC(=O)c1ccc(NC(=O)c2cccc(S(=O)(=O)N3CCc4ccccc43)c2)cc1,-8,-0.4,-7,nt,-6,6,6615
Nc1cc([N+](=O)[O-])ccc1Nc1ccc(O)cc1,11,nt,nt,1,nt,nt,2924
Cc1ccc(S(=O)(=O)N(C)C)cc1NC(=S)N1CCc2ccccc21,-6,1.2,3,-2,8,11,5193
COC(=O)[C@H]1C[C@@H]1[C@H](NS(=O)(=O)c1ccc2ccccc2c1)c1ccccc1,2,nt,nt,-1,nt,nt,3910
CSc1cccc(CNC(=O)CC2C(=O)NCCN2CC(C)(C)C)c1 (stereo not given),-20,1.6,4,10,3,-1,4842
CCOc1ccc(N(CC(=O)Nc2ccccc2C)S(=O)(=O)c2c(C)[nH]c(=O)[nH]c2=O)cc1,0,2.8,-2,10,4,-3,3906
Cc1ccc(C(c2nnnn2Cc2ccccc2)N2CC=C(c3ccc(F)cc3)CC2)cc1 (stereo not given),-54,-5.5,19,1,15,4,7445
Nc1ccccc1-c1nc2ccccc2s1,-67,-5.2,13,12,10,1,3215

# 7 entries picked at random from those above:
SMILES,PrP UTR inh,RN4220 kill,Sa ugtP lethal,BJeLR viability,Mtb hypoxia rep,Mtb hypoxia rep growth,Autofluor counter
Cc1ccc(C(c2nnnn2Cc2ccccc2)N2CC=C(c3ccc(F)cc3)CC2)cc1 (stereo not given),-54,-5.5,19,1,15,4,7445
COC(=O)C(CSCc1ccccc1)NC(=O)CSc1nc(C)cc(=O)[nH]1 (stereo not given),-30,1.3,1,5,3,8,3558
Cc1ccc(S(=O)(=O)N(C)C)cc1NC(=S)N1CCc2ccccc21,-6,1.2,3,-2,8,11,5193
Nc1cc([N+](=O)[O-])ccc1Nc1ccc(O)cc1,11,nt,nt,1,nt,nt,2924
Nc1ccccc1-c1nc2ccccc2s1,-67,-5.2,13,12,10,1,3215
CC(=NNC(=O)c1ccc(F)cc1)c1cccc(NC(=O)c2cccc(F)c2)c1,nt,1.9,1,nt,1,1,nt
CC(=O)c1ccc(N2CCN(S(=O)(=O)c3cccc(S(=O)(=O)N4CCOCC4)c3)CC2)cc1,-13,3.5,-10,-9,nt,nt,2827
